Source: PubChem (several laboratories)
E coli growth = E. coli growth inhibition | Escherichia coli growth, OD600, 23 h; active compounds read low | OD600 absorbance (test concentration not listed) | 330,000 tested, 0.21% active;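 active = OD600 absorbance below the run mean of sample wells minus 3.6 SD, in any replicate, cut at about 0.56 in these data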;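 also: stock transfer was 300 nL into about 60 µL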
Vif A3G = inhibitors of Vif binding to APOBEC3G peptide, primary screen, biochemical, TR-FRET, GST-Vif 1-94, biotin-A3G peptide, dose response retest (AID 1117319); TR-FRET GST-Vif / biotin-A3G peptide binding; higher % means a stronger effect; test concentration not given here; strong numbers were not always called active; inhibition, %, or IC50 in µM where a hit was titrated; 260,000 tested, 0.57% active;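 active = above the screen mean plus three standard deviations and confirmed in dose response; inconclusive = results disagree or hit not tested in dose response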;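 also: Vif residues 1-94 fused to GST binding biotinylated APOBEC3G peptide 110-148; 0% = full assay without inhibitor and 100% = GST in place of GST-Vif; retest series ran down from 100 µM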
ALR H2O2 inh = blocks human ALR sulfhydryl oxidase activity | inhibition, % (no concentration beside the values) | P55789 | 290,000 tested, 3.8% active | purified ALR, DTT oxidation, H2O2 HRP-luminol luminescence;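 active = mean and each replicate at 75% or more; inconclusive = only one of the two met; inactive = neither met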;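 also: stock transfer was 7.5 nL into about 7.5 µL; 0% = neutral wells and 100% = wells with inactivated enzyme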
FGF22 binding = FGF22 (human) thermal shift binding | AID 651658 | calls only at 9.99 µM | 340,000 tested, 1.5% active | recombinant FGF22 thermal shift, SYPRO orange fluorescence; percent of sucrose octasulfate shift, DMSO zero | Q9HCT0;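 active = melting point raised past a set limit in the mean and every replicate; inconclusive = no clear call; three in four hits are not shown here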
rRNA inh HTS = inhibits bacterial ribosomal RNA function over humanized ribosomes; E. coli WT GFP vs humanized-ribosome RFP mutants, fluorescence, 24 h; active compounds read low; DMSO median 0, no signal -100; GFP signal change (wild-type ribosome), % (concentration not given with the values); 350,000 tested, 1.6% active; AID 720706;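 active = significant combined selectivity score with lowered wild-type GFP, culture density cut under 30%, mutant RFP and density less affected; inactive = any of these conditions unmet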; also: one replicate is shown; some compounds called inactive have numbers as strong as hits
HNF4A DNA FP = change in binding of human HNF4 alpha to DNA | activity change, % at 10 µM | 360,000 tested, 0.3% active | HNF4a-FITC DNA binding, fluorescence polarization, 1 h | P41235; in the data active = activity change above about 30%, passing the limit was not always enough;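 also: controls were the assay level and a saturating level of protein; the project sought stronger binding though the title names inhibitors; some compounds called inactive have numbers as strong as hits; positive values seem to mean higher polarization but the record does not say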
Target sequence (P41235 whole entry, looked up): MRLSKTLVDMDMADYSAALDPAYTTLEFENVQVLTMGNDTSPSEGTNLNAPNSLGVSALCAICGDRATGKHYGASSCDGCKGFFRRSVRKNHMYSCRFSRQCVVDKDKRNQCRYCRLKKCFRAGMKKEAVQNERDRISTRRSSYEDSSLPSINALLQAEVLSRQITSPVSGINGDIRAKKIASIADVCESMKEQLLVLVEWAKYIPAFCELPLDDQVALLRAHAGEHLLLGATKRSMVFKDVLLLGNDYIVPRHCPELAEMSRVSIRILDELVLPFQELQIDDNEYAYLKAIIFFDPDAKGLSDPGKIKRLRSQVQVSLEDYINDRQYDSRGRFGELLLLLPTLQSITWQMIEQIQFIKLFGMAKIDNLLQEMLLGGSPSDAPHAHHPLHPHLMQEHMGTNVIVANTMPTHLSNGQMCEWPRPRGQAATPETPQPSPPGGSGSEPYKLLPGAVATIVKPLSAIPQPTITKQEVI
MLL AF4-AF9 inh = inhibitors of human MLL-AF4/AF9 interaction; inhibition, % at 10 µM; AID 651704; AlphaScreen, biotin-AF4 peptide binding to FLAG-AF9; 350,000 tested, 0.47% active;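 active = every replicate reaching a set inhibition limit, whatever the replicate mean, cut at about 25% in these data; inconclusive = mean inhibition reaches that limit but some replicates miss it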;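 also: 0% = plate neutral control median and 100% = total signal loss; the record names both 10 and 1 µM as test concentration; the first replicate is given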
Target sequence (P42568 whole entry, looked up): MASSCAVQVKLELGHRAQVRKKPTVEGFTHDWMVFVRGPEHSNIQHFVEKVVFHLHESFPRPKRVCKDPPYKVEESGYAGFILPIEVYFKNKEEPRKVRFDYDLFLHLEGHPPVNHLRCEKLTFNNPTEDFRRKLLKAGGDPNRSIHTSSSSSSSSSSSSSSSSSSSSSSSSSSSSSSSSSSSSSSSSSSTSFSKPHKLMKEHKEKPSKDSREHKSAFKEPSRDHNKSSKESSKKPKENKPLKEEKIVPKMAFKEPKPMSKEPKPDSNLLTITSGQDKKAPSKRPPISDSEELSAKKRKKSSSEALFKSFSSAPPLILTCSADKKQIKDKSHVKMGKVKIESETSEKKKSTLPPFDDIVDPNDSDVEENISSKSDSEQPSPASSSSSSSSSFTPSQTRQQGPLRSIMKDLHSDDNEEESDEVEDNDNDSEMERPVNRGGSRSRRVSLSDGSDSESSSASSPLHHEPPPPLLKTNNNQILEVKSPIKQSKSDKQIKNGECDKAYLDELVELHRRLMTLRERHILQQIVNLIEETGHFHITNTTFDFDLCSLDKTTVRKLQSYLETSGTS
rRNA inh HTS OD600 = also measured in rRNA inh HTS; calls as there; OD600 change, %; measured here: OD600 growth;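 optical density of the mix in the first replicate; 0 = DMSO median and -100 = no signal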
rRNA inh HTS RFP = second read-out of rRNA inh HTS, no call of its own (marks repeat the call); RFP signal change, %; measured here: RFP humanized mutant strains;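 first replicate; 0 = DMSO median and -100 = no signal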
The depositor's hits bear a star; i = inactive; ? = inconclusive; / = no result given; + = active, no number; & = joins results of further samples. The list is partial; the hit share may differ from the screen's.

SMILES	E coli growth	Vif A3G	ALR H2O2 inh	FGF22 binding	rRNA inh HTS	rRNA inh HTS OD600	rRNA inh HTS RFP	HNF4A DNA FP	MLL AF4-AF9 inh
CC(NCC(=O)NC(=O)NC1CCCC1)c1ccc(Cl)cc1Cl (stereo not drawn)	0.66	3%	-1	i	-10	-65	-0.3	-2.8	2.2
Cc1noc(C)c1S(=O)(=O)Nc1ccc2c(c1)C(=O)N([C@H](C)CO)C[C@@H](C)[C@@H](CN(C)C)O2	/	/	/	i	3	20	2.4	/	-2.2
CCCCCc1ccc(C(=O)CCC(=O)OCC(=O)N(CC)c2c(N)n(Cc3ccccc3)c(=O)[nH]c2=O)cc1	0.7	0%	/	i	3	8	-1.1	5.5	-0.2
CN(C(=O)c1ccc(NC(=O)Cc2cccc(NC(=O)C3CCCN(S(=O)(=O)c4cccc([N+](=O)[O-])c4)C3)c2)cc1)C1CC1 (stereo not drawn)	0.7	-2%	/	i	-3	-5	-2.5	-0.3	-6.2
CCOC(=O)COc1ccc(S(=O)(=O)NCc2ccco2)cc1	0.64	?	-7	/	/	/	/	-4.5	/
C[C@@H]1CN([C@H](C)CO)C(=O)c2cc(N(C)C)ccc2O[C@@H](C)CCCCO[C@H]1CN(C)Cc1ccc(C(F)(F)F)cc1	/	/	/	i	-3	-6	0.0	/	33*
Cc1[nH]cnc1CN1CCc2c(c3ccccc3n2C)C1=O	0.66	/	-19	i	-4	-12	5.3	-1.1	-0.4
CO[C@@H]1CN(C)C(=O)c2cc(NC(=O)NC(C)C)ccc2OC[C@H](C)N(Cc2ccccc2)C[C@H]1C	/	/	/	i	-8	-28	-1.6	/	0.5
CCOC(=O)C1CCCCN1Cc1cccc(Oc2ccccc2)c1 (stereo not drawn)	0.67	/	/	i	-13	-15	-1.0	1.6	0.5
C[C@@H]1CN([C@H](C)CO)C(=O)c2cc(NC(=O)Nc3ccccc3)ccc2O[C@H]1CN(C)Cc1ccc2c(c1)OCO2	/	/	/	i	-4	-6	-1.1	/	8.4
CCOC(=O)C1(C(=O)OCC)NC(=O)CC1C (stereo not drawn)	0.7	-12%	/	i	15	12	3.5	1.7	-5.1
COc1cccc(-c2cnc3c(NC(C)=O)cc(-c4ccc(OC)c(OC)c4)cn23)c1	/	/	/	i	-4	-5	3.2	6.6	-0.5
Cc1ccc(OCCN2C(=O)C(=O)c3cc(C)ccc32)cc1	0.67	18%	/	i	-13	-10	-2.2	1.2	5.0
C[C@@H]1CC=C[C@H]2[C@H]1C(=O)N(Cc1ccccc1)[C@H]2c1ccc(F)c(/C=C/c2ccccc2)c1	/	/	/	i	7	3	3.8	-3.5	9.6
O=C(CC12CC3CC(CC(Br)(C3)C1)C2)OCCN1CCCCC1	0.7	/	9	/	7	7	2.6	-0.5	2.4
CN(c1ccc(OCC(=O)Nc2ccc(S(N)(=O)=O)cc2)cc1)S(=O)(=O)c1ccc(F)cc1	0.66	/	/	i	-16	-10	3.1	-3.7	0.8
COc1ccc(-c2c(-c3cc(OC)cc(OC)c3)n(C)c3ccc(-c4ccn[nH]4)cc23)cc1	0.74	/	-8	i	3	7	5.2	-2.0	6.3
C[C@H]1CN([C@@H](C)CO)C(=O)c2cccc(NC(=O)NC3CCCCC3)c2O[C@@H]1CN(C)S(=O)(=O)c1ccc(Cl)cc1	/	/	/	i	-7	-11	1.7	/	1.8
Cc1ccc(C)c(S(=O)(=O)Nc2ccc(C(=O)NCCCN(C)C)cc2)c1	/	-6%	/	i	2	5	-3.8	3.3	0.0
Cc1ccc(NC2CCCN(C(=O)c3ccccn3)C2)cc1C (stereo not drawn)	0.74	10%	99*	i	29	17	3.9	-0.4	-1.5
Cc1ccc(NC(=O)C2=CN3CCS(=O)(=O)N=C3C=C2)cc1	0.66	0%	0	i	18	13	3.9	2.0	-1.3
CNC(=S)Nc1ccc(OC(F)(F)F)cc1	0.62	/	15	i	-28	-30	1.5	-0.5	-2.4
Cc1cc(Br)cc(C=Nc2ccc(N3CCOCC3)cc2)c1O	0.67	/	36	i	13	8	1.7	12	/
Cc1cc(-c2ccccc2)oc(=O)c1NC(=O)c1ccccc1	0.65	-4%	-15	i	-13	-5	-9.6	1.7	-0.1
COCCCNC(=O)C[C@H]1C[C@@]2(C(=O)OC)C(=C[C@H](C(C)C)O[C@@H]2C2CC2)N(Cc2ccccc2)C1=O	/	/	/	i	6	-1	1.8	/	-2.4
SMILES	E coli growth	Vif A3G	ALR H2O2 inh	FGF22 binding	rRNA inh HTS	rRNA inh HTS OD600	rRNA inh HTS RFP	HNF4A DNA FP	MLL AF4-AF9 inh
O=[N+]([O-])c1cccc(CON=Cc2cc(Cl)ccc2O)c1	/	-13%	/	i	-15	-34	1.1	3.3	0.0
COc1ccc(S(=O)(=O)Nc2ccc3c(c2)CC(=O)N([C@@H](C)CO)C[C@@H](C)[C@H](CN(C)Cc2ccc(C(F)(F)F)cc2)O3)cc1	/	/	/	i	1	-6	5.3	/	1.2
CSC1=C(C#N)C(c2ccc(Cl)cc2)C2=C(CC(C)(C)CC2=O)N1 (stereo not drawn)	0.68	7%	4	/	/	/	/	3.5	/
COCCN1C(=O)N(c2ccc(OC)cc2)C(=O)C1CC(=O)Nc1cccc(F)c1 (stereo not drawn)	0.69	/	0	i	-1	2	-0.4	-1.6	-8.5
CCc1cccc(NS(=O)(=O)c2ccc3c(c2)NC(=O)CO3)c1	0.67	/	-3	/	0	-7	-1.7	2.8	-10
C/C=C/c1ccc2c(c1)O[C@@H](CN(C)C(=O)Cc1ccccc1)[C@H](C)CN([C@H](C)CO)S2(=O)=O	/	/	/	i	-5	-28	-2.7	/	3.3
NC(=O)CC[C@@H]1NC(=O)[C@@H]2CCCN2C(=O)c2cc([N+](=O)[O-])cc(I)c2NCCC[C@@H](C(N)=O)NC1=O	/	10%	-6	i	12	10	1.0	/	-0.1
COc1ccc(-n2c(=O)c3ccccc3n(CC(=O)NC3CCCCC3)c2=O)cc1	0.72	8%	-24	/	/	/	/	2.0	/
COc1ccccc1C1OC(c2cccc([N+](=O)[O-])c2)=NN1C(C)=O (stereo not drawn)	0.71	6%	-2	i	0	19	1.2	-1.5	6.1
COC(=O)COc1ccc(S(=O)(=O)NCc2ccncc2)cc1	0.66	5%	-7	i	9	11	0.8	-3.6	1.0
COc1ccc(NC(=O)c2cc3cccc(OC)c3oc2=Nc2ccc(C(=O)O)cc2)cc1OC	0.63	-6%	/	i	0	-5	9.3	-7.2	2.2
O=C(COC(=O)c1ccc(N2CCCC2=O)cc1)NCc1ccco1	0.66	2%	3	/	/	/	/	0.2	/
C[C@@H]1CCCCO[C@@H](CN(C)C(=O)CCCN(C)C)[C@@H](C)CN([C@@H](C)CO)C(=O)c2cc(NC(=O)C3CCCCC3)ccc2O1	/	/	/	i	2	3	-1.7	/	-4.5
CCN(CC)CC(=O)Nc1ccc(Oc2ccc(NC(=O)CN(CC)CC)cc2)cc1	0.69	31%	-9	/	3	5	-6.9	2.8	5.9
COC(=O)c1ccc(C2C(C(=O)Nc3ccc(C)cc3C)=C(C)Nc3ncnn32)cc1 (stereo not drawn)	0.69	-8%	-37	i	-7	11	-2.5	-2.4	0.8
Cc1ccc(CC(=O)NC2CCSC2=O)cc1 (stereo not drawn)	0.65	6%	-7	i	18	14	2.7	-1.9	-1.8
CCN(CC)CCNC(=O)Cn1cnc2sc(C)c(S(=O)(=O)N3CCC(C)CC3)c2c1=O	0.66	1%	/	i	13	7	-0.3	3.8	-0.7
CCCNC(=O)c1ccccc1NC(=O)CN(c1ccccc1)S(=O)(=O)N(C)C	0.7	/	-4	i	11	5	-1.6	-1.5	-0.6
Cc1sc(NC(=O)c2cc3ccccc3oc2=O)c(C(=O)OC(C)C)c1-c1ccccc1	0.74	-7%	-14	/	/	/	/	1.1	/
COc1ccc(C(=O)C(CN2CCOCC2)c2ccccc2)cc1 (stereo not drawn)	0.62	5%	22	i	-50*	-17*	-14*	-3.9	15
COc1cccc(CNc2nc3cc(-c4ccccc4C)sc3c(=O)n2C)c1OC	/	/	/	i	-3	0	1.0	-0.9	4.3
CCCC(=O)Nc1c2c(nc3ccccc13)N(c1ccccc1)CC2	0.73	-16%	-23	/	/	/	/	1.4	/
Cc1cc(C(C)(C)C)cc(S(=O)(=O)NCCO)c1C	0.68	18%	1	/	/	/	/	0.2	/
C=CCn1c(-c2ccc(OC)cc2)csc1=Nc1c(C)n(C)n(-c2ccccc2)c1=O	0.72	7%	67	/	/	/	/	-1.2	/
O=C(NCC[C@@H]1CC[C@H](NC(=O)Nc2cc(F)ccc2F)[C@H](CO)O1)Nc1ccc(Cl)cc1	/	/	/	i	-48&-61	-75&-80	-5.2&-16	/	13

An excerpt of these results, as a markdown table:
| molecule | E coli growth | Vif A3G | ALR H2O2 inh | FGF22 binding | rRNA inh HTS | rRNA inh HTS OD600 | rRNA inh HTS RFP | HNF4A DNA FP | MLL AF4-AF9 inh |
| --- | --- | --- | --- | --- | --- | --- | --- | --- | --- |
| COc1ccccc1C1OC(c2cccc([N+](=O)[O-])c2)=NN1C(C)=O (stereo not drawn) | 0.71 | 6% | -2 | i | 0 | 19 | 1.2 | -1.5 | 6.1 |
| COC(=O)COc1ccc(S(=O)(=O)NCc2ccncc2)cc1 | 0.66 | 5% | -7 | i | 9 | 11 | 0.8 | -3.6 | 1.0 |
| COc1ccc(NC(=O)c2cc3cccc(OC)c3oc2=Nc2ccc(C(=O)O)cc2)cc1OC | 0.63 | -6% | / | i | 0 | -5 | 9.3 | -7.2 | 2.2 |
| O=C(COC(=O)c1ccc(N2CCCC2=O)cc1)NCc1ccco1 | 0.66 | 2% | 3 | / | / | / | / | 0.2 | / |
| C[C@@H]1CCCCO[C@@H](CN(C)C(=O)CCCN(C)C)[C@@H](C)CN([C@@H](C)CO)C(=O)c2cc(NC(=O)C3CCCCC3)ccc2O1 | / | / | / | i | 2 | 3 | -1.7 | / | -4.5 |
| CCN(CC)CC(=O)Nc1ccc(Oc2ccc(NC(=O)CN(CC)CC)cc2)cc1 | 0.69 | 31% | -9 | / | 3 | 5 | -6.9 | 2.8 | 5.9 |

New compounds follow
SMILES	E coli growth	Vif A3G	ALR H2O2 inh	FGF22 binding	rRNA inh HTS	rRNA inh HTS OD600	rRNA inh HTS RFP	HNF4A DNA FP	MLL AF4-AF9 inh
CN(CC(=O)Nc1ccc(N2CCOCC2)cc1)C(=O)c1cc2c(s1)CCCC2	0.66	3%	27	i	-2	-4	0.3	2.3	2.8
CCN(CC)S(=O)(=O)c1cccc(C(=O)OCC(=O)NCCN2C(=O)CSC2=O)c1	0.69	/	/	i	/	/	/	-25	0.7
CC(=O)CC(=O)Nc1ccccc1NC(C)=O	0.73	4%	39	/	/	/	/	-0.4	/
Cc1ccc(CNC(=O)CCC2CCCN(Cc3cc4ccccc4o3)C2)o1 (stereo not drawn)	0.67	66%	/	i	4	-5	-5.1	0.7	-36
O=[N+]([O-])c1ccc(CSc2nnc(Cc3ccccc3)o2)cc1	0.7	0%	-3	+	-13	-11	1.0	0.9	5.9
COc1ccc(N(C(=O)Cn2nnc3ccccc32)C(C(=O)NCc2ccco2)c2ccncc2)cc1 (stereo not drawn)	0.69	/	/	i	0	11	-1.8	1.2	-0.3
Cc1c(CC(=O)O)c(=O)oc2c(C)c(OCc3nn[nH]n3)ccc12	0.7	5%	-2	i	8	5	-5.1	2.0	1.7
CN(C)Cc1cc2ccccc2c2c1COC2	0.66	?	-18	i	13	-2	-0.7	-0.1	32*
C=CCNC(=O)COC(=O)CCC(=O)c1cccs1	0.68	-11%	-1	i	4	2	-0.5	-1.0	-4.5
